Bioassay records: PubChem, several laboratories
Mtb growth – M. tuberculosis H37Rv growth inhibitors, H37Rv strain (AID 1626); M. tuberculosis H37Rv growth inhibition; higher % means a stronger effect; one-dose inhibition, % at 10 µM; IC50 in µM for titrated hits; 0.95% of 220,000 active;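 active = confirmed in a dose series; inconclusive = inhibition above 80% but not taken into the dose series; inactive = below 80% or under 30% at every dose of the series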;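 also: bacteria incubated seven days before Alamar blue readout; 0% = bacteria only wells and 100% = bacteria with antibiotic wells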
YopH inh – blocks Yersinia enterocolitica YopH tyrosine phosphatase | fluorescence Ex485/Em525 | inhibition, %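 (about 10 µM by stock and volumes)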 | 0.16% of 140,000 active;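 active = inhibition of 50% or more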;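 also: controls were vehicle for no effect and minimum signal wells for full effect; inactives centre near -20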
Mtb bLac sens – beta-lactam sensitization of Mtb H37Rv; M. tuberculosis H37Rv growth with meropenem, percent inhibition; hits of this screen are not shown here; inhibition, % at 25 µM; 0.27% of 330,000 active;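 active = about 74% or more and at least 40 points above the plate without the antibiotic, then above 30% in a dose series; inconclusive = first-round hits that could not be retested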;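 also: growth measured after seven days incubation then overnight dye step; 0% = bacteria only wells and 100% = bacteria with antibiotic; twin plates without the antibiotic show which effects depend on it; some results filed as inactive read as strong as hits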
Arbovirus anti – arbovirus infection inhibition; arbovirus infection cell-based antiviral screen; inhibition, % at 10 µM; 0.37% of 200,000 active; AID 1251;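 active = inhibition from about 30%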;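 also: bluetongue infection of BSR cells; cell survival read as ATP light after 72 h; 0% = infected wells without compound and 100% = uninfected wells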
RecA splice inh – blocks M. tuberculosis RecA intein splicing; P9WHJ3; cell-free RecA intein splicing, fluorescence; inhibition, %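 (about 9 µM by stock and volumes)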; 0.75% of 290,000 active; in the data active = inhibition above about 30%; inconclusive = no clear call, values can overlap the other calls;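 also: 0% = vehicle wells and 100% = reference inhibitor control wells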
Target sequence (P9WHJ3 whole entry, looked up, canonical isoform): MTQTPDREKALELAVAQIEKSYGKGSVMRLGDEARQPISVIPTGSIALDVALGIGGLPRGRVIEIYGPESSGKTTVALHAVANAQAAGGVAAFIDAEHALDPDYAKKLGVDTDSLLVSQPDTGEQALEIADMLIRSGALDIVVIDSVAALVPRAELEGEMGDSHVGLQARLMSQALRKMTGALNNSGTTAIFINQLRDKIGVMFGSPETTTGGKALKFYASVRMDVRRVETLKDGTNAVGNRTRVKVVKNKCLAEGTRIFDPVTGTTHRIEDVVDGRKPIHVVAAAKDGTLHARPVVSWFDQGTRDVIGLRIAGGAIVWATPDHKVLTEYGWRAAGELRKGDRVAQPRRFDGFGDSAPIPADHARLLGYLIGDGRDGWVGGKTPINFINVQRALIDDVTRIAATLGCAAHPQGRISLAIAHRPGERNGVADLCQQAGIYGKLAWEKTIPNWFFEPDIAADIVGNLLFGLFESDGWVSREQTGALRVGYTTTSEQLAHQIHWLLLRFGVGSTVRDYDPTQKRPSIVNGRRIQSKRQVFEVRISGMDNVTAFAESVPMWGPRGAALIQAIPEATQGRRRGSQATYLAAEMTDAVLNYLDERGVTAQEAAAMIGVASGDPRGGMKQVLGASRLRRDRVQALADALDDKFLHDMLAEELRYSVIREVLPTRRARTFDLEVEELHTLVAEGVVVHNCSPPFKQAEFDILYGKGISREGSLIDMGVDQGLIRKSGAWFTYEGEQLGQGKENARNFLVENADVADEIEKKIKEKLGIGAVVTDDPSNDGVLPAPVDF
Arbovirus anti repeat – recorded beside Arbovirus anti, whose call it bears; inhibition, %; measured here: 10K subset replicate screen; many hits read low in the repeat;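 first of two repeat runs on a subset; 0% = infected and 100% = uninfected wells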
* = called active by the depositor; u = inconclusive; x = no result given; & = joins results of further samples.

SMILES	Mtb growth	YopH inh	Mtb bLac sens	Arbovirus anti	RecA splice inh	others
CCN(CC)CC(=O)c1ccc(-c2ccccc2)cc1	-3%	-10	12	-1	0.6
c1ccc(CCn2nnnc2CN2CCc3ccccc32)cc1	2%	-48	0	1	x
CC1(C)Oc2ccc(C(=O)NC3CCCC3)cc2N(CC(=O)NC2CCCC2)C1=O	-1%	-7	1	7	-1.0
CCOc1ccccc1N(C(=O)c1ccco1)C(C(=O)NC1CCCC1)c1cccnc1 (stereo not drawn)	-2%	-31	-9	-4	-0.3
O=C(CNS(=O)(=O)c1ccccc1)Nc1ccc2c(c1)OCO2	0%	x	-9	14	1.0
CCOc1cc2[nH]c(=O)n(CCC(=O)N3CCN(c4ccccc4OC)CC3)c(=O)c2cc1OCC	-5%	-34	-13	1	x
C=CCc1cccc(CNc2c(C)cc(C)cc2C)c1O	0%	x	0	10	1.1
C/C(=N\N1CCN(Cc2ccc(Cl)cc2)CC1)c1ccc([N+](=O)[O-])cc1	-4%	x	-7	x	1.4
COC(=O)c1ccc(-n2c(C)cc(C(=O)COC(=O)CC3Sc4ccccc4NC3=O)c2C)cc1 (stereo not drawn)	3%	-16	16	-1	2.5
CCN(CC)S(=O)(=O)c1cccc(C(=O)N[C@H](C(=O)NCc2ccc(Cl)cc2)C(C)C)c1	6%	-10	3	-9	2.4

Next part, starting with the last 2 of the part before.
SMILES	Mtb growth	YopH inh	Mtb bLac sens	Arbovirus anti	RecA splice inh	others
COC(=O)c1ccc(-n2c(C)cc(C(=O)COC(=O)CC3Sc4ccccc4NC3=O)c2C)cc1 (stereo not drawn)	3%	-16	16	-1	2.5
CCN(CC)S(=O)(=O)c1cccc(C(=O)N[C@H](C(=O)NCc2ccc(Cl)cc2)C(C)C)c1	6%	-10	3	-9	2.4
O=C1c2ccccc2C(=O)c2[nH]cnc21	-2%	x	36	x	24
CCN(CCCNC(=O)CN(C)S(=O)(=O)c1ccc2c(c1)CCC(=O)N2)c1cccc(C)c1	-2%	-37	-7	1	-2.8
CCc1[nH]c(=O)c(C#N)c2c1COC(C)(C)C2	-5%	-35	2	1	0.3
CNC(=S)N/N=C/c1cc(Br)cc(Br)c1O	0%	-22	47	-27	-24
Cn1cc(S(=O)(=O)N2CCN(c3ccc(F)cc3)CC2)c(=O)n(C)c1=O	-6%	-39	-2	5	0.7
NC(=O)c1ccc(NC(=O)COc2coc(CN3CCc4ccccc4C3)cc2=O)cc1	x	x	-10	x	-0.7
COc1cccc(OCC(=O)NC2CCCCC2)c1	-2%	-47	1	2	1.0
Cc1cc(C(=O)CN2C(=O)NC3(CCCc4ccccc43)C2=O)c(C)n1C (stereo not drawn)	-4%	-13	4	5	x
Fc1cccc(Cc2noc(CN3CCSCC3)n2)c1	4%	x	-3	3	-1.7
COc1ccc(S(=O)(=O)N(n2c(C)nnc2-n2nc(C)cc2C)S(=O)(=O)c2ccc(OC)cc2)cc1	7%	-25	-4	2	-2.5
Cc1ccccc1CN(C)CCS(=O)(=O)c1cc(Cl)ccc1Cl	x	x	78	x	7.5
O=[N+]([O-])c1cccc(CN2CCN(S(=O)(=O)Cc3ccccc3)CC2)c1	x	x	-4	x	1.1
CCN(CC(=O)NCc1cccs1)c1ccc(S(=O)(=O)N2CCOCC2)cn1	-6%	-53	-1	2	3.0
CCCCN(Cc1cc2cc(OC)ccc2[nH]c1=O)C(=O)c1ccccn1	3%	3	0	7	2.3
O=c1cc2oc3cc(O)c(O)cc3c(-c3ccccc3[N+](=O)[O-])c-2cc1O	x	x	32	x	-1.4
CCCC(=O)C1=C(O)C(C(=O)OC)C(C)(C)CC1=NCc1ccccc1 (stereo not drawn)	x	x	-4	x	1.0
Cc1cccc(-n2ncc3c2CCCC3NC(=O)CCc2ccncc2)c1C (stereo not drawn)	x	x	-8	x	-1.9
CCNC(=S)NC(=NCc1cccnc1)Nc1nc(C)cc(C)n1	x	x	-6	x	-0.3
COCCNC(=O)C1CCN(C(=O)c2cc3sccc3n2Cc2ccc(F)cc2)CC1	-3%	x	-3	9	0.0
O=[N+]([O-])c1ccc(-n2nnnc2CN2CCCCC2)cc1	-1%	x	0	5	-1.2
COc1cccc(Oc2c(C)oc3c(CN4CCCCC4)c(O)ccc3c2=O)c1	-8%	x	-3	x	-4.1
COCCNC(=O)c1cn(C)c2ccc(S(=O)(=O)N3CCCC3)cc2c1=O	x	x	3	x	-0.5
O=C(Cc1ncc(C(F)(F)F)cc1Cl)NCCc1ccccn1	0%	x	-5	-4	-1.0
COc1ccc(C(=O)NCCCCNC(=O)c2ccc(OC)c(OC)c2)cc1OC	x	x	4	x	1.7
COc1ccc(NC2CC(=O)N(c3cccc(C)c3)C2=O)cc1 (stereo not drawn)	63%	-26	86	-15	1.6
Cc1ccc(-c2ccc(SCC(=O)Nc3cc(C)on3)nn2)cc1	1%	x	11	13	-5.7
CCOC(=O)C1=C(C)Nc2ccccc2N=C1NC(=O)Cc1ccc(Cl)c(Cl)c1	9%	x	-5	-2	7.1
NC(=O)C[n+]1cccc(C(N)=O)c1	-4%	x	-4	-3	-0.2
Cc1ccc(S(=O)(=O)N2CCCCC2)cc1NC(=O)CSc1nccn1C	-6%	x	-1	3	1.1
CCSc1nnc(NS(=O)(=O)c2ccc(OC)cc2)s1	4%	x	-5	-3	-0.9
COc1ccc(CN2CCN(c3ccccn3)CC2)c(OC)c1C	9%	x	-1&3	x	1.1&-1.1
O=C(CN1C(=O)C2(OCCO2)c2ccccc21)c1ccc(Br)cc1	2%	-37	15	10	0.2
C/C(=N\NC(=O)CSc1nc(C)cc(C)n1)c1cccs1	-4%	-28	3	-1	-0.7
COc1cccc(N2C(=NC(=O)COc3ccccc3)SC3CS(=O)(=O)CC32)c1 (stereo not drawn)	x	x	-3	x	-2.8
COc1ccc(N(CC(=O)Nc2cc(OC)ccc2OC)S(=O)(=O)c2c(C)noc2C)cc1	x	x	0	x	-1.0
CCOC(=O)c1sc(=NC(=O)c2ccc(OC(C)C)cc2)n(C)c1C	-1%	x	-4	15	-2.3
S=C(NCCc1ccccc1)Nc1cccc2cnccc12	1%	x	-7	11	1.8
COc1ccc(/C=C/C(=O)c2ccccc2O)cc1CN1CCOCC1	9%	8	21	3	-1.3
CC(C)(C)c1ccc(OCc2ccc(C(=O)N/N=C/c3ccc(O)c(O)c3)cc2)cc1	6%	x	37	-21	-2.8
O=C(C1=C[C@H](c2ccc(C(F)(F)F)cc2)C[C@H](OCCCCO)O1)N1CCN(Cc2ccc3c(c2)OCO3)CC1	1%	x	57	-18	1.7
c1ccc(N2CCN(c3ccc4nncn4n3)CC2)nc1	4%	-18	-4	1	1.0
CCOCC(=O)Nc1cc(OC)c(Cl)cc1OC	-11%	-25	95	8	0.1
CCCC(=O)C1=C(N(C)c2ccccc2)CC(C)(C)CC1=O	x	x	-6	x	1.0
CCN(C(=O)CSc1nnc2nc(C)cc(C)n12)c1ccccc1	-2%	x	-4	0	-2.5
Cc1cccc(NC(=S)NCCCN2CCOCC2)c1	-1%	-28	-10	-3	7.2
S=c1[nH]nc(COc2ccccc2)n1Cc1ccccc1	6%	-15	-3	6	9.1
O=C(CSc1n[nH]c(-c2ccc(S(=O)(=O)N3CCCCC3)cc2)n1)Nc1nccs1	-2%	5	-3	14	4.6
Cc1ccc(/C=N/NC(=O)CSc2nc3ccccc3c(=O)n2-c2ccccc2)s1	10%	-25	6	-6	-1.6
O=C(NCCS(=O)(=O)N1CCC2(CC1)OCCO2)c1ccc(F)cc1	x	x	-1	x	-3.0
CCCC1(CCC)C(=O)NC(=Nc2ccccc2)NC1=O	0%	-5	6	-10	-2.4

(continued)
SMILES	Mtb growth	YopH inh	Mtb bLac sens	Arbovirus anti	RecA splice inh	others
S=C1NC2(CCCC2)Nc2ccccc21	-6%	x	-3	12	-9.6
Cc1ccc(N/C(N)=N/c2nc3c(c(=O)[nH]2)CCCC3)c(C)c1	7%	11	23	-20	-2.6
CC(C)C[C@H](NC(=O)N1CCn2c1nc1ccccc12)C(=O)NCc1ccco1	x	x	-4	x	0.1
Cc1c(CBr)[n+](=O)c2c(n1[O-])C(Br)CCC2Br (stereo not drawn)	-7%	x	5	x	0.1
CCOC(=O)C1CCCN(Cc2cc(=O)oc3cc(C)c(C)cc23)C1 (stereo not drawn)	-3%	x	-1	-2	-1.6
COc1ccc(OC)c2nc(-c3ccncc3)ccc12	x	x	-2	x	-0.5
Cc1noc(C)c1COc1cccc(C(=O)OCC(=O)NC(=O)c2ccc(OC(F)F)cc2)c1	-5%	-20	1	-1	2.0
COc1cc(OC)c(C(=O)Nc2ccccc2-c2ccccc2)cc1OC	12%	6	90	-3	-0.9
CCCCOc1ccc(C(=O)NNC(=S)NC(=O)CC)cc1	u	-17	99	-15	14
CCn1c(=O)c(CCC(=O)NCCN2CCOCC2)c(C)c2c(C)nn(-c3ccccc3)c21	x	x	3	x	-2.8
CCOC(=O)C(C)Sc1nc(-c2ccccn2)ncc1OC (stereo not drawn)	u	x	78	10	0.6
Cc1nnc(N/N=C/c2ccccc2C(F)(F)F)n1N	x	x	-4	x	-0.8
CSc1ccccc1NC(=O)c1cc(C(C)C)on1	-2%	-32	93	0	3.6
CC(C)(C)c1ccc(C(=O)N/C(N)=N/c2nc3ccccc3o2)cc1	8%	-12	8	6	-0.4
CC(C)N(CC#CC(O)(c1ccccc1)c1ccccc1)CCO	-9%	-30	-7	-8	0.5
COc1ccc(C(=O)c2ccc(Cl)cc2)c2ccccc12	6%	3	-9	-9	2.5
CCc1ccc(NC(=O)NNC(=O)c2cc3ccccc3cc2O)cc1	x	x	-8	x	-5.2
O=C1C(=O)N(CCN2CCOCC2)C(c2ccccn2)/C1=C(/O)c1ccccc1 (stereo not drawn)	-7%	-40	-3	-2	3.4
CCn1c(=O)c(C(=O)NNS(=O)(=O)c2ccc(Br)cc2)c(O)c2ccccc21	-5%	x	4	-5	-4.6
CC(C)N(C(=O)C[n+]1ccc(/C=N/O)cc1)C(C)C	-8%	-9	4	12	-1.0
CC(Sc1ccccn1)C(=O)Nc1ccc(S(N)(=O)=O)cc1 (stereo not drawn)	-4%	-24	9	1	-1.1
CN(CC(=O)Nc1ccccc1C(F)(F)F)C(=O)COc1ncnc2sccc12	3%	-17	6	1	2.7
CCC(C)(C)n1c(=O)[nH]c2c(c1=O)CCC2	-4%	-49	-2	5	3.1
O=C1CNC(=O)N1CC(O)Cn1c2ccccc2c2ccccc21 (stereo not drawn)	0%	x	0	-1	-4.2
CC(C)(C)C(=O)NNC(=O)COc1ccc2ccccc2c1Br	4%	x	-4	4	-0.8
CCCCCOC(=O)Cn1c(=O)oc2ccccc21	3%	18	2	-3	2.5	Arbovirus anti repeat=5
CC(=O)Oc1c(C(=O)c2nnc(C)o2)c(=O)n(C)c2ccccc12	-8%	-28	-10	0	-7.5
Cc1ccc(N/C(N)=N/c2nc(CSc3nnc(C)s3)cc(=O)[nH]2)c(C)c1	-6%	x	-2	-9	3.4
CCn1c(CCNC(=O)c2ccc(C)cc2)nnc1SCc1ccc(Cl)c(Cl)c1	x	-22	24	-2	-8.6
CCOC(=O)Cn1nnnc1CN(Cc1ccc(OC)cc1)Cc1cc2cc(CC)ccc2[nH]c1=O	1%	-37	5	-3	x
CC1Cc2nc(SCC(=O)N3CCOCC3)n(-c3ccccc3)c(=O)c2S1 (stereo not drawn)	3%	-8	-3	-1	5.9	Arbovirus anti repeat=10

Compounds above that have an NH in an aromatic ring, in the order listed:
SMILES	Mtb growth	YopH inh	Mtb bLac sens	Arbovirus anti	RecA splice inh	others
CCOc1cc2[nH]c(=O)n(CCC(=O)N3CCN(c4ccccc4OC)CC3)c(=O)c2cc1OCC	-5%	-34	-13	1	x
O=C1c2ccccc2C(=O)c2[nH]cnc21	-2%	x	36	x	24
CCc1[nH]c(=O)c(C#N)c2c1COC(C)(C)C2	-5%	-35	2	1	0.3
CCCCN(Cc1cc2cc(OC)ccc2[nH]c1=O)C(=O)c1ccccn1	3%	3	0	7	2.3
S=c1[nH]nc(COc2ccccc2)n1Cc1ccccc1	6%	-15	-3	6	9.1
O=C(CSc1n[nH]c(-c2ccc(S(=O)(=O)N3CCCCC3)cc2)n1)Nc1nccs1	-2%	5	-3	14	4.6
Cc1ccc(N/C(N)=N/c2nc3c(c(=O)[nH]2)CCCC3)c(C)c1	7%	11	23	-20	-2.6
CCC(C)(C)n1c(=O)[nH]c2c(c1=O)CCC2	-4%	-49	-2	5	3.1
Cc1ccc(N/C(N)=N/c2nc(CSc3nnc(C)s3)cc(=O)[nH]2)c(C)c1	-6%	x	-2	-9	3.4
CCOC(=O)Cn1nnnc1CN(Cc1ccc(OC)cc1)Cc1cc2cc(CC)ccc2[nH]c1=O	1%	-37	5	-3	x

Some of the compounds tested. The share of hits here may be higher or lower than overall.
